Bioassay records from PubChem.
Ran FRET: inhibitors of Ran–importin-beta complex formation, primary screen, biochemical, CFP-Ran/YFP-importin-beta FRET, RCC1, cell-free (AID 434961). actives 0.2% (n = 7,700). inhibition, %. CFP-Ran/YFP-importin-beta FRET, cell-free; stronger effect = higher value;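 active means more than half of the replicate wells above 15% inhibition; inconclusive means exactly half above it; inactive means fewer than half above it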;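 further: 0% = DMSO wells and 100% inhibition = RanGDP control wells on each plate; stock of unstated strength diluted about 400-fold; mean of two wells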
Active calls of the source: *. An excerpt; rates above refer to the full screens.

Results for C[C@H](CO)N1C[C@H](C)[C@@H](CN(C)C)OCc2cn(nn2)CCCC1=O ?
Ran FRET: 3.2

What do the screens show for `Cc1noc(C)c1NC(=O)Nc1ccc2c(c1)CC(=O)N([C@@H](C)CO)C[C@@H](C)[C@@H](CN(C)C)O2`?
Ran FRET: inconclusive

What do the screens show for `C[C@@H]1CCCCO[C@H](CN(C)C)[C@H](C)CN([C@H](C)CO)C(=O)c2cc(NC(=O)c3ccccc3)ccc2O1`?
Ran FRET: -1.3

Results for C[C@H]1CN([C@@H](C)CO)C(=O)Cc2cc(NC(=O)NC3CCCCC3)ccc2O[C@@H]1CN(C)C(=O)Nc1ccc(C(F)(F)F)cc1 ?
Ran FRET: 4.5

How did C[C@@H]1CCCCO[C@H](CN(C)Cc2ccc3c(c2)OCO3)[C@@H](C)CN([C@H](C)CO)C(=O)c2cc(NC(=O)CCCN(C)C)ccc2O1 do in these assays?
Ran FRET: 20*

How did COc1ccc(CN(C)C[C@H]2Oc3ccc(NC(=O)Nc4cccc5ccccc45)cc3CC(=O)N([C@@H](C)CO)C[C@@H]2C)cc1 do in these assays?
Ran FRET: inconclusive

What do the screens show for `C[C@@H]1CN([C@@H](C)CO)C(=O)Cc2cc(NC(=O)Cc3ccccc3)ccc2O[C@@H]1CN(C)CC1CC1`?
Ran FRET: 0.4

How did C[C@H](CO)N1C[C@H](C)[C@H](CN(C)C(=O)Nc2ccc(F)cc2)Oc2ccc(NC(=O)Nc3ccc(F)cc3)cc2C1=O do in these assays?
Ran FRET: 0.5

How did C[C@@H]1CN([C@H](C)CO)C(=O)Cc2cc(NS(=O)(=O)c3ccccc3)ccc2O[C@H]1CN(C)C(=O)Nc1ccc2c(c1)OCO2 do in these assays?
Ran FRET: -1.5

What do the screens show for `C[C@@H]1CN([C@@H](C)CO)C(=O)Cc2cc(NC(=O)Nc3cccc4ccccc34)ccc2O[C@@H]1CN(C)CC1CC1`?
Ran FRET: 1.4

How did COc1ccc(S(=O)(=O)N(C)C[C@H]2Oc3c(NC(=O)C4CC4)cccc3C(=O)N([C@H](C)CO)C[C@H]2C)cc1 do in these assays?
Ran FRET: inconclusive

How did Cc1noc(C)c1NC(=O)N(C)C[C@@H]1Oc2c(NC(=O)c3ccncc3)cccc2C(=O)N([C@@H](C)CO)C[C@H]1C do in these assays?
Ran FRET: -1.8

What do the screens show for `C[C@@H]1CN([C@@H](C)CO)C(=O)c2cc(N(C)C)ccc2O[C@@H]1CN(C)S(=O)(=O)c1ccccc1`?
Ran FRET: -0.1

Results for C[C@H]1CN([C@@H](C)CO)C(=O)c2cccc(NC(=O)c3ccncc3)c2O[C@@H]1CN(C)Cc1ccc2c(c1)OCO2 ?
Ran FRET: 1.8

How did C[C@H]1CCCCO[C@@H](CN(C)C(=O)Nc2cccc3ccccc23)[C@@H](C)CN([C@@H](C)CO)C(=O)c2cc(NC(=O)c3ccncc3)ccc2O1 do in these assays?
Ran FRET: -2.5

The closing three compounds of the part before lead into the next:
What do the screens show for `C[C@@H]1CN([C@@H](C)CO)C(=O)c2cc(N(C)C)ccc2O[C@@H]1CN(C)S(=O)(=O)c1ccccc1`?
Ran FRET: -0.1

Results for C[C@H]1CN([C@@H](C)CO)C(=O)c2cccc(NC(=O)c3ccncc3)c2O[C@@H]1CN(C)Cc1ccc2c(c1)OCO2 ?
Ran FRET: 1.8

How did C[C@H]1CCCCO[C@@H](CN(C)C(=O)Nc2cccc3ccccc23)[C@@H](C)CN([C@@H](C)CO)C(=O)c2cc(NC(=O)c3ccncc3)ccc2O1 do in these assays?
Ran FRET: -2.5

Results for C[C@@H]1CCCCO[C@@H](CN(C)C)[C@@H](C)CN([C@H](C)CO)C(=O)c2cc(NC(=O)c3ccccc3)ccc2O1 ?
Ran FRET: -2.8

What do the screens show for `Cc1noc(C)c1NC(=O)N(C)C[C@H]1Oc2c(NC(=O)c3ccc(-c4nccs4)cc3)cccc2C(=O)N([C@@H](C)CO)C[C@H]1C`?
Ran FRET: -1.8

What do the screens show for `C[C@@H]1CN([C@H](C)CO)C(=O)c2cccc(NC(=O)Nc3ccc(F)cc3)c2O[C@@H]1CN(C)C(=O)NC1CCCCC1`?
Ran FRET: -2.0

What do the screens show for `C[C@@H]1CCCCO[C@@H](CN(C)Cc2ccncc2)[C@H](C)CN([C@H](C)CO)C(=O)c2cc(N(C)C)ccc2O1`?
Ran FRET: -2.9

Results for C[C@H](CO)N1C[C@H](C)[C@@H](CN(C)C(=O)Nc2ccc(C(F)(F)F)cc2)Oc2c(NS(=O)(=O)c3ccccc3)cccc2C1=O ?
Ran FRET: 1.2

What do the screens show for `Cc1noc(C)c1NC(=O)N(C)C[C@H]1OCCCC[C@@H](C)Oc2ccc(N(C)C)cc2C(=O)N([C@H](C)CO)C[C@H]1C`?
Ran FRET: -2.4

How did C[C@H]1CN([C@@H](C)CO)C(=O)c2cccc(NC(=O)Nc3ccc(F)cc3)c2O[C@H]1CN(C)Cc1ccc(C(F)(F)F)cc1 do in these assays?
Ran FRET: -2.5

Results for COc1ccc(-c2cnc3c(c2)C(=O)N([C@H](C)CO)C[C@H](C)[C@H](CN(C)Cc2ccc4c(c2)OCO4)O3)cc1 ?
Ran FRET: 3.6

Results for C[C@H](CO)N1C[C@H](C)[C@@H](CN(C)C(=O)Nc2ccccc2)OCCCC[C@H](C)Oc2ccc(NC(=O)C3CCCCC3)cc2C1=O ?
Ran FRET: 6.7

What do the screens show for `CC(C)NC(=O)Nc1ccc2c(c1)C(=O)N([C@@H](C)CO)C[C@H](C)[C@H](CN(C)C(=O)c1ccncc1)OCCCC[C@H](C)O2`?
Ran FRET: -0.3

How did Cc1noc(C)c1NC(=O)N(C)C[C@H]1Oc2c(NC(=O)C3CCOCC3)cccc2C(=O)N([C@@H](C)CO)C[C@H]1C do in these assays?
Ran FRET: 4.2

How did C[C@H]1CN([C@@H](C)CO)C(=O)c2cccc(NC(=O)C3CCOCC3)c2O[C@H]1CN(C)Cc1ccccc1 do in these assays?
Ran FRET: 1.2

How did C[C@H](CO)N1C[C@H](C)[C@@H](CN(C)C(=O)Nc2ccccc2)Oc2c(NC(=O)NC3CCCCC3)cccc2C1=O do in these assays?
Ran FRET: 1.4

How did CC(C)NC(=O)Nc1ccc2c(c1)C(=O)N([C@H](C)CO)C[C@@H](C)[C@@H](CN(C)Cc1ccc(C(=O)O)cc1)OCCCC[C@H](C)O2 do in these assays?
Ran FRET: -12

Results for C[C@@H]1CN([C@@H](C)CO)C(=O)Cc2cc(N(C)C)ccc2O[C@@H]1CN(C)Cc1ccc(C(=O)O)cc1 ?
Ran FRET: 4.9

The final 2 entries of the section before come first, to join the parts.
How did CC(C)NC(=O)Nc1ccc2c(c1)C(=O)N([C@H](C)CO)C[C@@H](C)[C@@H](CN(C)Cc1ccc(C(=O)O)cc1)OCCCC[C@H](C)O2 do in these assays?
Ran FRET: -12

Results for C[C@@H]1CN([C@@H](C)CO)C(=O)Cc2cc(N(C)C)ccc2O[C@@H]1CN(C)Cc1ccc(C(=O)O)cc1 ?
Ran FRET: 4.9

What do the screens show for `C[C@@H]1CN([C@H](C)CO)C(=O)Cc2cc(NC(=O)Cc3cn(C)c4ccccc34)ccc2O[C@@H]1CN(C)S(=O)(=O)c1cn(C)cn1`?
Ran FRET: -3.4

What do the screens show for `C[C@H]1CN([C@@H](C)CO)C(=O)c2cccc(NS(=O)(=O)c3cn(C)cn3)c2O[C@@H]1CN(C)Cc1ccc(Cl)c(Cl)c1`?
Ran FRET: -1.8

How did C[C@H](CO)N1C[C@H](C)[C@@H](CN(C)C(=O)c2ccccc2)OCc2cn(nn2)CCCC1=O do in these assays?
Ran FRET: inconclusive

What do the screens show for `CNC[C@@H]1Oc2ccc(NC(=O)c3ccncc3)cc2CC(=O)N([C@@H](C)CO)C[C@@H]1C`?
Ran FRET: -1.7

What do the screens show for `C[C@H](CO)N1C[C@H](C)[C@H](CN(C)Cc2ccc(C(=O)O)cc2)Oc2c(NC(=O)c3ccncc3)cccc2C1=O`?
Ran FRET: -2.4

What do the screens show for `C[C@@H]1CN([C@H](C)CO)C(=O)c2cc(NC(=O)Nc3ccc(F)cc3)ccc2O[C@H]1CN(C)C(=O)Nc1ccc(F)cc1`?
Ran FRET: inconclusive

What do the screens show for `Cc1noc(C)c1NC(=O)N(C)C[C@H]1Oc2c(NC(=O)c3ccncc3)cccc2C(=O)N([C@@H](C)CO)C[C@H]1C`?
Ran FRET: 2.8

How did C[C@H](CO)N1C[C@H](C)[C@@H](CN(C)Cc2ccc(C(=O)O)cc2)OCCCC[C@H](C)Oc2ccc(NC(=O)Nc3ccc(F)cc3)cc2C1=O do in these assays?
Ran FRET: -3.5

Results for CNC[C@@H]1Oc2ccc(NC(=O)CCC(F)(F)F)cc2C(=O)N([C@@H](C)CO)C[C@H]1C ?
Ran FRET: 2.6

Results for COc1ccc(S(=O)(=O)Nc2cccc3c2O[C@@H](CN(C)Cc2ccc(C(F)(F)F)cc2)[C@H](C)CN([C@@H](C)CO)C3=O)cc1 ?
Ran FRET: 9.1

How did C[C@@H]1CN([C@H](C)CO)C(=O)c2cc(NC(=O)Nc3ccc(F)cc3)ccc2O[C@H]1CN(C)S(=O)(=O)c1cccs1 do in these assays?
Ran FRET: -1.7

What do the screens show for `C[C@@H]1CCCCO[C@@H](CN(C)C)[C@H](C)CN([C@H](C)CO)C(=O)c2cc(NS(=O)(=O)c3cccs3)ccc2O1`?
Ran FRET: -0.1

How did C[C@H](CO)N1C[C@H](C)[C@@H](CN(C)C(=O)Nc2cccc3ccccc23)Oc2c(NC(=O)c3nc4ccccc4s3)cccc2C1=O do in these assays?
Ran FRET: -1.7

How did C[C@H](CO)N1C[C@H](C)[C@H](CN(C)Cc2ccc(C(=O)O)cc2)Oc2ccc(NC(=O)Cc3ccccc3)cc2CC1=O do in these assays?
Ran FRET: 0.7

Results for C[C@H](CO)N1C[C@H](C)[C@H](CN(C)CC2CC2)Oc2ccc(NC(=O)Nc3ccc4c(c3)OCO4)cc2CC1=O ?
Ran FRET: -0.1

What do the screens show for `C[C@@H]1CCCCO[C@H](CN(C)C)[C@H](C)CN([C@@H](C)CO)C(=O)c2cc(NC(=O)Nc3ccc(F)cc3)ccc2O1`?
Ran FRET: -3.0

How did C[C@@H]1CN([C@@H](C)CO)C(=O)c2cc(NS(=O)(=O)c3cn(C)cn3)ccc2O[C@@H](C)CCCCO[C@@H]1CN(C)S(=O)(=O)c1cn(C)cn1 do in these assays?
Ran FRET: 2.3

What do the screens show for `Cc1cc(C(=O)Nc2cccc3c2O[C@@H](CN(C)C(=O)Nc2ccccc2)[C@@H](C)CN([C@@H](C)CO)C3=O)n(C)n1`?
Ran FRET: 0.2

Results for CNC[C@H]1OCCCC[C@@H](C)Oc2ccc(N)cc2C(=O)N([C@@H](C)CO)C[C@H]1C ?
Ran FRET: -3.1

Results for C[C@H](CO)N1C[C@H](C)[C@H](CN(C)Cc2ccncc2)Oc2ccc(NC(=O)Nc3ccc(F)cc3)cc2C1=O ?
Ran FRET: 6.4

Results for C[C@@H]1CN([C@@H](C)CO)C(=O)Cc2cc(NC(=O)CCN3CCOCC3)ccc2O[C@@H]1CN(C)S(=O)(=O)c1cn(C)cn1 ?
Ran FRET: -1.7

How did C[C@@H]1CN([C@@H](C)CO)C(=O)c2cc(NS(=O)(=O)c3cccs3)ccc2O[C@@H]1CN(C)Cc1ccc(-c2ccccc2)cc1 do in these assays?
Ran FRET: 0.3

What do the screens show for `COc1ccc(CN(C)C[C@@H]2Oc3ccc(NC(=O)Nc4ccc(OC)cc4)cc3CC(=O)N([C@@H](C)CO)C[C@@H]2C)cc1`?
Ran FRET: 2.2

Results for C[C@@H]1CN([C@@H](C)CO)C(=O)Cc2cc(NC(=O)NC3CCCCC3)ccc2O[C@H]1CN(C)Cc1ccncc1 ?
Ran FRET: -1.4

Results for C[C@H]1CN([C@@H](C)CO)C(=O)CCCn2cc(nn2)CO[C@H]1CN(C)Cc1ccc(Cl)c(Cl)c1 ?
Ran FRET: 0.4

What do the screens show for `Cc1noc(C)c1NC(=O)Nc1cccc2c1O[C@H](CN(C)Cc1ccc(C(F)(F)F)cc1)[C@@H](C)CN([C@H](C)CO)C2=O`?
Ran FRET: 2.7

How did Cc1noc(C)c1NC(=O)Nc1ccc2c(c1)CC(=O)N([C@H](C)CO)C[C@@H](C)[C@H](CN(C)S(=O)(=O)c1ccccc1)O2 do in these assays?
Ran FRET: 0.9

How did C[C@H]1CN([C@@H](C)CO)C(=O)Cc2cc(NC(=O)NC3CCCCC3)ccc2O[C@H]1CN(C)C(=O)Nc1ccc(F)cc1 do in these assays?
Ran FRET: 0.3

How did CNC[C@@H]1Oc2c(NC(=O)c3ccncc3)cccc2C(=O)N([C@H](C)CO)C[C@H]1C do in these assays?
Ran FRET: -0.6

Results for COc1ccc(NC(=O)N(C)C[C@H]2Oc3ccc(NS(=O)(=O)c4ccccc4)cc3C(=O)N([C@@H](C)CO)C[C@@H]2C)cc1 ?
Ran FRET: 3.3

Results for C[C@@H]1CCCCO[C@H](CN(C)C(=O)CCC(F)(F)F)[C@H](C)CN([C@@H](C)CO)C(=O)c2cc(NC(=O)c3ccncc3)ccc2O1 ?
Ran FRET: 2.0

How did C[C@@H]1CN([C@H](C)CO)C(=O)Cc2cc(N(C)C)ccc2O[C@@H]1CN(C)S(=O)(=O)c1cn(C)cn1 do in these assays?
Ran FRET: -3.0

Results for Cc1noc(C)c1NC(=O)N(C)C[C@H]1Oc2ccc(NC(=O)Nc3ccc(F)cc3)cc2C(=O)N([C@H](C)CO)C[C@H]1C ?
Ran FRET: 1.1

Results for C[C@H]1CN([C@@H](C)CO)C(=O)c2cccc(NS(C)(=O)=O)c2O[C@@H]1CN(C)Cc1ccncc1 ?
Ran FRET: -1.1

What do the screens show for `C[C@@H]1CN([C@H](C)CO)C(=O)c2cc(NC(=O)CCC(F)(F)F)ccc2O[C@@H](C)CCCCO[C@@H]1CN(C)C(=O)CCC(F)(F)F`?
Ran FRET: 1.7

What do the screens show for `C[C@H](CO)N1C[C@H](C)[C@H](CN(C)Cc2ccc(Cl)c(Cl)c2)Oc2ccc(NC(=O)C3CC3)cc2CC1=O`?
Ran FRET: 1.1

What do the screens show for `C[C@@H]1CN([C@H](C)CO)C(=O)CCCn2cc(nn2)CO[C@H]1CN(C)C(=O)Nc1cccc(Oc2ccccn2)c1`?
Ran FRET: 5.7
